Methyltransferases: Primary Screen for Target Class Profiling of Small Molecule Inhibitors of Methyltransferases | calls only at 40 µM | 3.9% of 25,000 active | purified enzyme, MTase-Glo SAH luminescence; stronger effect = lower value; active = -50% or lower on at least one of six enzymes; inconclusive = the cases between; inactive = as a rule above -30% on all six;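 further: enzymes were COMT GAMT GNMT HNMT NNMT and PNMT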
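Each enzyme was reacted with SAM and its substrate, with compounds tested once at 40 uM; SAH formed was read by MTase-Glo luminescence.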
Calls only; i = inactive; ? = inconclusive; + = active, no number. On the % scale 0 is the no-effect control and ±100 the full control effect. Some of the compounds tested, so the mix of outcomes need not match the whole.

compound	Methyltransferases
CC(C)OCCCn1c(=O)c2ccccc2n2c(SCC(=O)Nc3cccc(Cl)c3)nnc12	i
O=C(CSc1nnc2n(Cc3ccc(F)cc3)c(=O)c3ccccc3n12)Nc1cccc(Cl)c1	i
CCOc1ccc(CNC(=O)C2c3ccccc3CC(=O)N2CC)cc1 (stereo unspecified)	i
COCCCN1C(=O)c2nc3ccccc3n2CC1(C)C(=O)NC1CCCCC1 (stereo unspecified)	i
CC1(C(=O)NC2CCCC2)Cn2c(ccc2-c2ccco2)C(=O)N1CCCN1CCCCC1 (stereo unspecified)	i
O=C1CO[C@H]2CN(C3CCOCC3)C[C@H]2N1c1ccccc1	i
Cc1ccccc1CN1C(=O)c2ccc(-c3ccccc3)n2CC1(C)C(=O)NC1CCCCC1 (stereo unspecified)	i
CC(C)C(=O)N1CCC2(CC1)OC(=O)N(Cc1ccccc1)C2(C)c1cccnc1 (stereo unspecified)	i
CC(=O)NC[C@H]1CN(c2ccc(N3CCSCC3)c(F)c2)C(=O)O1	i
CC(C)CNC1(Cc2cc(CN3CCOCC3)on2)COC1	i
COc1ccccc1CNS(=O)(=O)c1cc2c(cc1Cl)n(C)c(=O)n2C	i
CCOCCCNC(=O)C1c2c(n(C)c3ccccc23)SCC(=O)N1c1ccc(C)c(Cl)c1 (stereo unspecified)	i
Cc1ccc(Cn2c(=O)c3ccc(C(=O)NCC(C)C)cc3n3c(=O)n(Cc4ccccc4)nc23)cc1	i
Nc1nc(Cl)nc2c1ncn2[C@@H]1O[C@H](COP(=O)(O)OP(=O)(O)OP(=O)(O)O)[C@@H](O)[C@H]1O	i
CC(=O)N[C@@H](CC(=O)O)C(=O)N[C@@H](CCC(=O)O)C(=O)N[C@H](C(=O)N[C@@H](CC(=O)O)C(=O)Nc1ccc2c(C)cc(=O)oc2c1)C(C)C	?
CC(C)Oc1ccc(CN2C(=O)c3cc(C(C)(C)C)nn3CC2(C)C(=O)NC2CCCCC2)cc1 (stereo unspecified)	i
C=C1C2CCC3CC2(CC(O)C2(O)C1CC(OC1OC(CO)C(O)C(O)C1O)C2(C)C)CC3(C)O (stereo unspecified)	i
COc1ccccc1CCC(=O)N1c2ccccc2CC1c1nc(C2CC2)no1 (stereo unspecified)	i
COc1ccccc1CN1C(=O)c2cc(C(C)(C)C)nn2CC1(C)C(=O)NC1CCCCCC1 (stereo unspecified)	i
COC(=O)c1ccc(NC(=O)N2Cc3c(sc4c3CCCC4)-n3cccc3C2c2cccc(F)c2)cc1 (stereo unspecified)	i
O=C(Nc1cccc(C(F)(F)F)c1)N[C@H]1CO[C@H]2[C@@H]1OC[C@@H]2n1cc(-c2ccccc2)nn1	i
C[S+](=O)([O-])c1ccc(-c2nnc3ccc(C(=O)NC4CCCCC4)cn23)cc1	i
CC(=O)N[C@H]1CN(S(=O)(=O)c2ccc(C)c(F)c2)C[C@@H]1C(C)C	i
Cc1ccsc1C(=O)N1CCc2nnc([C@@H]3C[C@@H](O)CN3C(C)C)n2CC1	i
Oc1cccc(C2NC(=S)Nc3cccc(F)c32)c1 (stereo unspecified)	i
COc1ccccc1NC(=O)c1sc(=S)n2c1[nH]c(=O)c1cc(Cl)ccc12	i
CC(=O)NC1CC2(CCN(C(=O)C3CCN(C)CC3)CC2)c2ccccc21 (stereo unspecified)	?
CCOc1ccccc1N1CCN(Cc2ccc(=O)n(CC)c2)CC1	i
COc1cccc(C2c3cccn3-c3sc4c(c3CN2C(=O)Nc2ccc(C)cc2)CCCC4)c1 (stereo unspecified)	i
COc1ccccc1-c1noc(CCC(=O)N2CCC(Cc3noc(C)n3)CC2)n1	i
O=C(NCc1cccc(C(F)(F)F)c1)C1(CCO)CC12CCN(c1ncccn1)CC2 (stereo unspecified)	i
COc1ccc(CNC(=O)CCn2ccc3cc(S(=O)(=O)N4CCCC4)ccc32)cc1	i
CCCCN1C(=O)c2cc(C(=O)NCc3cccc(OC)c3)nn2CC1(C)C(=O)NC1CCCC1 (stereo unspecified)	i
CC(C)CCn1c(=O)c2ccc(C(=O)NCC(C)C)cc2n2c(=O)n(C)nc12	i
O=C1NC2CCCCN2C12CCN(CCCN1c3ccccc3CCc3ccc(Cl)cc31)CC2 (stereo unspecified)	+
COC(=O)c1cc2n(n1)CC(C)(C(=O)NC1CCCCCC1)N(c1ccc(OC)cc1)C2=O (stereo unspecified)	i
O=C1COc2ccc(-c3cccc(O)c3)nc2CN1Cc1ccc(C(F)(F)F)cc1	+
COc1ccc2c(C)c(C(=O)N3CCCCC3c3cc(C)on3)oc2c1 (stereo unspecified)	i
COc1cc(/C=C/C(=O)O[C@H]2[C@H](O)[C@@H](CO)O[C@@]2(CO)O[C@H]2O[C@H](COC(=O)c3ccc(O)cc3)[C@@H](O)[C@H](O)[C@H]2O)cc(OC)c1OC	i
CCCn1c(=O)c2cc(Cl)ccc2n2c(SCC(=O)Nc3cc(F)ccc3F)nnc12	i
COC1CCCN(c2cc(-c3cccnc3)nc3c(C)noc23)C1 (stereo unspecified)	i
COc1cccc2cc3c(c(O[C@@H]4O[C@H](CO[C@@H]5O[C@H](CO)[C@@H](O)[C@H](O)[C@H]5O)[C@@H](O)[C@H](O)[C@H]4O)c12)C(C)OC3=O (stereo partly specified)	i
CCc1ccccc1N1C(=O)c2c(C(=O)OC)ncn2CC1(C)C(=O)NCCCOC(C)C (stereo unspecified)	i
O=S(=O)(c1cc(F)ccc1F)N1CCCC1c1nncn1Cc1ccncc1 (stereo unspecified)	i
Nc1c(S(=O)(=O)O)cc(Nc2ccc(Nc3nc(Cl)nc(Nc4ccc(S(=O)(=O)O)cc4)n3)c(S(=O)(=O)O)c2)c2c1C(=O)c1ccccc1C2=O	+
CC(C)CCN1C(=O)c2ccccc2CC1(C)C(=O)NC1CCCCCC1 (stereo unspecified)	i
COc1ccc(NS(=O)(=O)c2ccc3[nH]c(=O)[nH]c3c2)c(OC)c1	i
Cc1ccccc1Sc1ccc(/C=C2\SC(=S)NC2=O)cc1[N+](=O)[O-]	+
O=C(NCC1CN(Cc2cccc(O)c2)CC12CN(c1ccccc1)C2)c1ccccc1 (stereo unspecified)	i
CCN(CC)Cc1nnc2cc(-c3nc(-c4ccccc4)no3)ccn12	i

Compounds from the list above that have an aryl thioether with sulfur outside any ring, in the order listed:
compound	Methyltransferases
CC(C)OCCCn1c(=O)c2ccccc2n2c(SCC(=O)Nc3cccc(Cl)c3)nnc12	i
O=C(CSc1nnc2n(Cc3ccc(F)cc3)c(=O)c3ccccc3n12)Nc1cccc(Cl)c1	i
CCCn1c(=O)c2cc(Cl)ccc2n2c(SCC(=O)Nc3cc(F)ccc3F)nnc12	i
Cc1ccccc1Sc1ccc(/C=C2\SC(=S)NC2=O)cc1[N+](=O)[O-]	+

Rewritten as labelled records: part of the list above.
> O=S(=O)(c1cc(F)ccc1F)N1CCCC1c1nncn1Cc1ccncc1 (stereo unspecified)
  Methyltransferases = i

> Cc1ccsc1C(=O)N1CCc2nnc([C@@H]3C[C@@H](O)CN3C(C)C)n2CC1
  Methyltransferases = i

> COc1ccccc1NC(=O)c1sc(=S)n2c1[nH]c(=O)c1cc(Cl)ccc12
  Methyltransferases = i

> CCN(CC)Cc1nnc2cc(-c3nc(-c4ccccc4)no3)ccn12
  Methyltransferases = i

Remaining list, next part
compound	Methyltransferases
CCC(C)/C=C(C)/C=C/C(=O)C1CCC(O)C(C)(O)C1=O (stereo unspecified)	i
CCCn1c(=O)c2ccc(Cl)cc2n2c(SCC(=O)Nc3ccc(F)cc3)nnc12	i
COCCCn1c(=O)[nH]c2cccnc21	i
COc1ccc(NC(=O)CCc2nnc3n(CCc4ccccc4)c(=O)c4ccccc4n23)cc1	i
CCOc1ccc(Nc2nc3c(S(=O)(=O)c4ccccc4)nnn3c3ccccc23)cc1	i
O=C(NC1CCN(Cc2ccccc2)CC1)c1cccc2c1CCN2C(=O)c1ccccc1	?
O=C(CCc1nnc2n(CCc3ccccc3)c(=O)c3ccccc3n12)N1CCC(Cc2ccccc2)CC1	i
C[C@@H]1O[C@@H](O[C@H]2[C@H](OC(=O)[C@]34CCC(C)(C)C[C@H]3C3=CCC5[C@@]6(C)C[C@H](O)[C@H](O[C@@H]7O[C@H](CO)[C@@H](O[C@H]8OC[C@](O)(CO)[C@H]8O)[C@H](O)[C@H]7O)[C@@](C)(CO)C6[C@H](O)C[C@@]5(C)[C@]3(C)C[C@H]4O)OC[C@H](O)[C@@H]2O)[C@H](O)[C@H](O)[C@H]1O[C@@H]1OC[C@@H](O)[C@H](O[C@@H]2OC[C@](O)(CO)[C@H]2O)[C@H]1O (stereo partly specified)	i
O=c1[nH]c2cc(Br)c(S(=O)(=O)NCCN3CCN(c4ccccc4F)CC3)cc2[nH]1	i
CC(C(=O)N1CCN(c2ccccn2)CC1)n1ccc2cc(S(=O)(=O)N3CCCC3)ccc21 (stereo unspecified)	i
O=C([C@@H]1C[C@H](F)CN1S(=O)(=O)Cc1ccccc1)N1CCOCC1	i
COc1ccc(C)cc1NS(=O)(=O)c1cc2[nH]c(=O)[nH]c2cc1Cl	i
Cc1cc(C[C@@H]2COC[C@@H]2NC(=O)C2CCN(C(=O)C3CC3)CC2)on1	i
C=CCCC(CN1CCOCC1)Oc1ccc(Cn2ccnc2)cn1 (stereo unspecified)	i
COC(=O)C1=CO[C@@H](O[C@@H]2O[C@H](CO)[C@@H](O)[C@H](O)[C@H]2O)[C@H]2[C@@H]1CC(OC)O[C@@H]2C (stereo partly specified)	+
CCOc1ccc(CN2C(=O)c3nc4ccccc4n3CC2(C)C(=O)NC2CCCCCC2)cc1 (stereo unspecified)	i
CC(C)CCn1c(=O)c2ccc(C(=O)NC(C)C)cc2n2c(=O)n(CC(N)=O)nc12	i
COCc1nc(NCCCN2CCOCC2)cc(C2CC(N)C2)n1 (stereo unspecified)	i
CCCn1c(=O)c2ccccc2n2c(SCC(=O)Nc3ccccc3C)nnc12	i
CCN1C(=O)c2cc(-c3ccc(OC)cc3)nn2CC1(C)C(=O)NCc1ccccc1OC (stereo unspecified)	i
C[C@@H]1O[C@@H](O[C@H]2[C@H](O)[C@@H](O)[C@H](OC[C@H]3O[C@@H](OC(=O)[C@]45CCC(C)(C)C[C@H]4C4=CCC6[C@@]7(C)C[C@@H](O)[C@H](O)[C@@](C)(CO)C7[C@H](O)C[C@@]6(C)[C@]4(C)CC5)[C@H](O)[C@@H](O)[C@@H]3O)O[C@@H]2CO)[C@H](O)[C@H](O)[C@H]1O (stereo partly specified)	i
O=C(CCc1nnc2n(Cc3ccccc3Cl)c(=O)c3ccccc3n12)N1CCN(c2ncccn2)CC1	i
Cc1ccc(CNC(=O)CCc2nnc3n(CCCOC(C)C)c(=O)c4ccccc4n23)cc1	i
CN1CCc2nc(C(=O)N[C@@H]3C[C@@H](C(=O)N(C)C)CC[C@@H]3NC(=O)C(=O)Nc3ccc(Cl)cn3)sc2C1	i
COc1ccc(Nc2nc3c(S(=O)(=O)c4ccccc4)nnn3c3ccccc23)c(OC)c1	i
C=C1C(=O)OC2/C=C(\C)CC3C=C(CC/C=C(\C)CCC12)C(=O)O3 (stereo unspecified)	i
c1ccc(CC2=NOC3(CCN(Cc4ccccc4)C3)C2)cc1 (stereo unspecified)	i
Cc1ccc(NC(=O)Cn2c(=O)oc3cc(S(=O)(=O)NC4CCCC4)ccc32)cc1	i
Cc1ccc2nc(Nc3ccc4[nH]c(=O)[nH]c4c3)c(-n3nc(C)cc3C)nc2c1	i
CC(=O)N1CCC([C@@H]2CN(Cc3ccc(C)s3)C[C@H]2CO)CC1	i
COc1ccc(CNc2nc3c(-c4ccc(C)cc4)nnn3c3ccccc23)cc1	i
CO[C@H]1C(=O)N(C2CCN(C(=O)c3ccnn3C)CC2)[C@H]1c1ccncc1	i
COCC(=O)N1CCN(C(C)=O)C[C@@H]1C(=O)N[C@H](C)C(=O)OC	i
O=c1c2ccccc2n2c(=O)n(Cc3ccccc3Cl)nc2n1Cc1ccc(F)cc1	i
CSC(Cc1ccc(Cl)cc1)C(=O)Nc1ccc(Cl)cc1C(=O)O (stereo unspecified)	?
CC[C@@H](C)[C@H](NC(=O)[C@H](CC1CCCCC1)NC(=O)c1ccno1)C(=O)N1CCC2(CCc3ccccc32)CC1	?
Cn1nc(N2CCC(NS(=O)(=O)c3ccc4c(c3)CCC4)CC2)ccc1=O	i
O=C(Nc1ncc(-c2cc(C(F)F)nn2-c2c(Cl)cccc2Cl)s1)C1CC1	?
COC(=O)C[C@H]1[C@]2(C)C3=C(C)[C@H](c4ccoc4)C[C@H]3O[C@@H]2[C@H](O)C2[C@](C)(C(=O)OC)C=CC(=O)[C@@]21C (stereo partly specified)	i
CCc1ccc(NC(=O)N2CCN(C)C3(CCC(=O)N(C)CC3)C2)cc1 (stereo unspecified)	i
COc1ccc(-c2cc(C(=O)NCC3CC3)c3c(C4CCNC4)noc3n2)cc1 (stereo unspecified)	i
CC(C)CCNC(=O)C1(C)Cn2nc(C(=O)NCc3ccccc3Br)cc2C(=O)N1C (stereo unspecified)	i
O=S(=O)(N[C@H]1[C@H](O)[C@H](O)C[C@@H]1c1ccc(C(F)(F)F)nc1)c1ccc(Cl)cc1	i
O=C1CC2(CCN(C(=O)c3ccc(Cl)cc3)CC2)Oc2cc(Cl)ccc21	i
CC[C@H](NC(=O)[C@H](CS(=O)(=O)CC1CC1)N[C@@H](c1ccc(F)cc1)C(F)(F)F)C(=O)C(=O)NC1CC1	i
C=C1C(=O)OC2C1C(O)CC1(C)C(O)CCC(C=O)C21 (stereo unspecified)	i
CC(C)c1cc2c(c(O)c1O)[C@@]13CCCC(C)(C)C1[C@@H](O)[C@@H]2OC3=O (stereo partly specified)	+
